High-throughput results (PubChem)
GIV-Gai inh = blocks GIV peptide binding to rat Galpha-i3; P08753; Galpha-i3/FITC-GIV peptide fluorescence polarization, 90 min; active compounds read low; scaled: aluminum fluoride 0%, vehicle 100%; percent of control (FP), % (no concentration beside the values); 0.42% of 210,000 active; AID 1224905;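 active = replicate mean at 85% of control or lower, very high polarization wells dropped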;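 note: wells of about 15 µL received 100 nL stock; the first replicate is given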
Target sequence (P08753 whole entry, looked up): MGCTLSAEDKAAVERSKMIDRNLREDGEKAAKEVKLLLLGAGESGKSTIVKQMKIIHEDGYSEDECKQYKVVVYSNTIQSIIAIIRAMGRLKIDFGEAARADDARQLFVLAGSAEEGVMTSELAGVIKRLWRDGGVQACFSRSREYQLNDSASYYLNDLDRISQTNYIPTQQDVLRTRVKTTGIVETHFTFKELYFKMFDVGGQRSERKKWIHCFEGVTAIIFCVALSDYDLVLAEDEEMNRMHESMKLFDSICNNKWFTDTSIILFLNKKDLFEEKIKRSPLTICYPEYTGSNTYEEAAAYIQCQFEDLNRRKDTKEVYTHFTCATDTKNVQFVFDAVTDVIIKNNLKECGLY
Sa growth 42C = blocks Staphylococcus aureus growth; S. aureus RN4220 growth, OD600, 20 h, 42 °C; active compounds read low; relative growth, % (no concentration beside the values); 0.53% of 170,000 active; AID 720641;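 active = growth at 42 °C up to 50% and 20 or more points under that at 30 °C, or under 10% at both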;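 note: 300 nL library stock went into each well; scaled to the means of positive and negative controls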
HCMV NEC inh = inhibitors of HCMV UL50-UL53 nuclear egress complex interaction | HTRF UL50-UL53 interaction, normalized percent inhibition | inhibition, % (test concentration not listed) | 0.15% of 190,000 active;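 active = both replicates at 50% or more, plus weaker picks with an unusually low signal ratio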;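 note: stock transfer was 100 nL into about 20 µL; 0% = negative control wells and 100% = wells with untagged competitor protein; inactives centre near -12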
Sa growth 42C second temp = second read-out of Sa growth 42C, no call of its own (marks repeat the call); relative growth, %; measured here: growth at 30 °C;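 optical density after 20 h as mean of two plates; 100% = untreated growth and lower means inhibition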
Numbers without * were called inactive; nt = no result given; & = joins results of further samples.

SMILES	GIV-Gai inh	Sa growth 42C	Sa growth 42C second temp	HCMV NEC inh
Cc1cn(C(=O)c2ccc(Cl)cc2Cl)c(C)n1	nt	75	89	-11
CC(C)/C=C1\CC/C(=C\c2ccc(N(C)C)cc2)C1=O	-75*	83	82	nt
CC(C)Cn1c(CN(Cc2ccccc2)Cc2ccccc2)nc2c1c(=O)[nH]c(=O)n2C	103	86	64	nt
CC(=O)Nc1cc2cc(NC(=O)C(F)(F)F)ccc2oc1=O	100	116	86	nt
COc1ccc(-n2cc(-c3ccccc3)nc2SCC(=O)c2ccccc2)cc1	106	107	97	nt
Cc1ccc(Cc2cnc(NC(=O)c3ccc4c(c3)CC(c3ccccc3)OC4=O)s2)cc1 (stereo not given)	100	100	94	3
CCOc1ccccc1C(=O)N(c1ccccc1)C1C=CS(=O)(=O)C1 (stereo not given)	96	85	90	nt
CCOC(=O)N1CCC(n2c(SCC(=O)Nc3ccc(C)c(Cl)c3)nc3ccccc3c2=O)CC1	112	105	91	-4
COc1ccc(NC(=O)c2ccc3c(SCC(=O)O)c4c(nc3c2)CCC4)c(OC)c1	111	115	58	-102
Cc1ccc(S(=O)(=O)c2nc(-c3ccccc3)oc2Sc2nc3ccccc3[nH]2)cc1	103	118	107	1
CCOc1ccc(NC(=S)N(C)Cc2nccn2C)cc1	nt	67	90	-16
CC(=O)Nc1ccc(N=Cc2cccc3ccccc23)cc1	nt	89	12	-24
O=S(=O)(c1ccccc1)n1nccc1-c1cc(-c2ccccc2)no1	105	102	96	-20
CCC1CCCCN1CCCNC(=O)C1CCCN(S(=O)(=O)N2CC(C)CC(C)C2)C1 (stereo not given)	108	100	104	16
CC1(C(=O)NC2CCCC2)Cn2c(cc3ccsc32)C(=O)N1c1ccc2c(c1)OCCO2 (stereo not given)	108	nt	nt	-18
O=C1CSC(c2cccnc2)N1Cc1ccc2c(c1)OCO2 (stereo not given)	106	115	102	-5
O=c1[nH]cc(S(=O)(=O)NCc2ccccc2)c(=O)[nH]1	101	88	91	-4
O=C(NCCN1CCC(Cc2ccccc2)CC1)c1cc2c(s1)-c1ccccc1OC2	99	nt	nt	12
NC(=Nc1cc(Cl)cc(Cl)c1)N1CCN(Cc2ccccc2)CC1	nt	98	97	6
O=C(NCCc1csc2nc(-c3ccccc3F)nn12)c1ccccc1C(F)(F)F	106	87	89	nt
Oc1ccccc1CNc1ccc(C2CCCCC2)cc1	nt	96	96	-1
CSc1nnc(-c2csc(S(=O)(=O)Nc3cccc(Cl)c3)c2)n1C	101	88	76	-26
Cc1ccc(CNC(=O)c2nc(SCc3cccc(C)c3)ncc2Cl)cc1	103	97	92	9
COc1ccccc1-n1nnc2c(sc3nc(C)ccc32)c1=O	104	nt	nt	-77
COc1ccc(NC(=O)c2cc3nc(-c4ccccc4)cc(C(F)(F)F)n3n2)c(OC)c1	101&100	nt	nt	-18&-23
Additional entries follow.
SMILES	GIV-Gai inh	Sa growth 42C	Sa growth 42C second temp	HCMV NEC inh
CCC(C(=O)NCc1cc(OC)ccc1OC)n1nc(C)c2sc3ccccc3c2c1=O (stereo not given)	101&103	109	85	-19&-8
CCn1c2ccccc2c2cc(NC(=O)COc3cc(C)c(Cl)c(C)c3)ccc21	100	95	85	-33
CCOc1ccccc1CNC(=O)C1CCN(c2nn3cc(-c4ccc(F)cc4)nc3s2)CC1	101	74	83	nt
N#CC1=C(N)SC(N)=C(C#N)C1CCC1CCCCC1	-95*	44	16	-7
CCOC(=O)CN1CC23C=CC(O2)C(C(=O)NCc2ccc(C)cc2)C3C1=O (stereo not given)	113	99	101	-9
COc1ccc(CCNc2nc(-c3ccccc3OC)cc(C(F)(F)F)n2)cc1OC	99	93	93	7
CCOc1ccc(CCn2c3c(c(=O)[nH]c2=O)C(NC(=O)c2ccccc2)(C(F)(F)F)C(=O)N3)cc1OCC (stereo not given)	99	115	94	-12
CC(=O)N1CCc2cc(S(=O)(=O)CCC(=O)N3CCc4ccccc43)ccc21	98	101	91	nt
O=C(CN1CCN(Cc2ccccc2Cl)S1(=O)=O)Nc1ccccc1F	97	nt	nt	-7
CC(Oc1cc(OC(C)C(=O)O)c2c(c1)oc(=O)c1ccccc12)C(=O)O (stereo not given)	nt	91	98	-11
CC(Sc1nc2c(c(=O)n(C)c(=O)n2C)n1Cc1cc2c(cc1Cl)OCO2)C(=O)O (stereo not given)	109	nt	nt	-22
O=C(NCc1ccccn1)C1CCN(c2ncnc3c2sc2ncccc23)CC1	105	nt	nt	-19
COc1ccc(-c2nnc(NC(=O)C3CC3)o2)cc1	103	78	66	-3
CSc1nc2ccc(S(=O)(=O)N3CCCC3)cc2s1	nt	76	102	15
Cc1nc2nc[nH]n2c(=O)c1NS(=O)(=O)c1ccc(C(C)(C)C)cc1	96	nt	nt	-18
Nc1nnnn1N=Cc1ccc(-c2ccc3c(c2)COC3=O)o1	36*	104	84	nt
Nc1cccc(C2=NCCN2)c1	nt	109	87	-7
N#Cc1ccc(CSc2nc3ccc(Cl)cc3[nH]2)cc1	nt	65	32	-8
Cc1nn(CC(=O)O)c(=N)s1	nt	88	89	-4
Cc1cc(C)c(C#N)c(SCc2cc(=O)[nH][nH]2)n1	nt	90	81	-6
COc1ccc(/C=C2\N=C(c3ccccc3Br)OC2=O)c(OC)c1OC	101	nt	nt	4
CN(CC(=O)N1CCc2ccccc21)S(=O)(=O)c1cccs1	109	109	94	-2
COc1cccc(Oc2nc3c(c(=O)n(Cc4ccccc4Cl)c(=O)n3C)n2C)c1	107	113	91	-27
Cc1cc(OC(C)C(=O)N(Cc2ccc(N(C)C)cc2)Cc2ccco2)ccc1Cl (stereo not given)	103	106	93	-1
COc1ccc(Br)cc1/C=C/C(=O)NCC(=O)O	104	77	91	nt

Filtered by structure, those above containing a furan ring, fused or not.
SMILES	GIV-Gai inh	Sa growth 42C	Sa growth 42C second temp	HCMV NEC inh
Nc1nnnn1N=Cc1ccc(-c2ccc3c(c2)COC3=O)o1	36*	104	84	nt
Cc1cc(OC(C)C(=O)N(Cc2ccc(N(C)C)cc2)Cc2ccco2)ccc1Cl (stereo not given)	103	106	93	-1

Given in markdown: 2 of the compounds above.
| Compound | GIV-Gai inh | Sa growth 42C | Sa growth 42C second temp | HCMV NEC inh |
| --- | --- | --- | --- | --- |
| Cc1cc(C)c(C#N)c(SCc2cc(=O)[nH][nH]2)n1 | nt | 90 | 81 | -6 |
| COc1ccc(/C=C2\N=C(c3ccccc3Br)OC2=O)c(OC)c1OC | 101 | nt | nt | 4 |

Continuation:
SMILES	GIV-Gai inh	Sa growth 42C	Sa growth 42C second temp	HCMV NEC inh
CCOC(=O)CSc1nc(C(C)(C)C)cc(C(F)(F)F)c1C#N	104	102	105	-33
CCOC(=O)N1CCC(n2c(SCC(=O)c3ccccc3)nc3ccccc3c2=O)CC1	99	106	98	nt
Cc1ccc(NC(=O)c2c(C)nc3sc(C(=O)NC4CCCC4)c(N)c3c2-c2cccnc2)c(C)c1	106	102	81	-12
CCN(C(=O)Cn1ncc2c(=O)oc3ccc(C)cc3c21)c1ccccc1	100	92	83	-24
Cc1cc(C)c(S(=O)(=O)NCC(c2ccc(N(C)C)cc2)N2CCOCC2)c(C)c1 (stereo not given)	98	103	89	nt
Fc1cccc(NC(=S)NCc2ccc3c(c2)OCO3)c1	99	76	56	-10
Cc1nc2ccn(Cc3cccs3)c(=O)c2cc1C(=O)Nc1ccccc1	99	99	91	nt
O=S1(=O)CCC(c2ccccc2)C1 (stereo not given)	101	93	89	-24
NC(=O)CS(=O)(=O)c1ccccc1	nt	92	102	24
Cc1cccc(N(C)S(=O)(=O)c2ccc3c(c2)NC(=O)CC(=O)N3)c1	103	102	87	-43
Cc1ccccc1NC(=O)CN(C)S(=O)(=O)c1cccc2nsnc12	101	101	86	nt
Cc1ccc(C2=NC3(CCN(C(=O)OC(C)(C)C)CC3)NC2=S)cc1	114	86	81	nt
CNc1cc(C)nc2c(-c3ccc(Cl)cc3)cnn12	114	nt	nt	3
COC(=O)c1ccccc1S(=O)c1cccc2cccc(CO)c12 (stereo not given)	102	112	89	-17
Cc1ccc2oc(=O)c3cnn(CC(=O)N4CCN(c5cccc(C(F)(F)F)c5)CC4)c3c2c1	106	107	87	-41
Cc1cccc2c(O)c(/C=C3/C(=O)N(c4ccccc4)NC3c3ccccc3)c(=O)[nH]c12 (stereo not given)	nt	42	31	-18
COC(=O)C(CC(=O)c1ccc(Br)cc1)c1ccccc1 (stereo not given)	102	nt	nt	-14
COc1ccc(C(=O)c2cn(CC(=O)Nc3cc(OC)cc(OC)c3)c3ccc(OC)cc3c2=O)cc1	103	107	80	-26
CCCNC(=O)c1ccc2c(c1)C(=O)N(CC(C)C)C2=O	102	102	103	-118
COc1ccc(-c2nn(-c3ccccc3)cc2/C=N/O)cc1	105	116	60	nt
COC(=O)c1ccc(S(=O)(=O)N2CCN(C)CC2)n1C	103	97	96	-21
Cn1nc(CC(=O)Nc2nc(-c3ccccc3)cs2)c2ccccc2c1=O	103	103	83	nt
Cc1ccc(-c2nc(I)ccc2O)cc1	105	9.1*	3.9*	5
O=S(=O)(c1ccc(SCc2cc3c(cc2Br)OCCO3)nc1)N1CCOCC1	nt	96	97	-14
S=c1n(CN2CCCC2)nc(C2COc3ccccc3O2)n1-c1ccccc1 (stereo not given)	nt	96	82	-39

Reprinted from the part before: two compounds, followed by the next part.
SMILES	GIV-Gai inh	Sa growth 42C	Sa growth 42C second temp	HCMV NEC inh
O=S(=O)(c1ccc(SCc2cc3c(cc2Br)OCCO3)nc1)N1CCOCC1	nt	96	97	-14
S=c1n(CN2CCCC2)nc(C2COc3ccccc3O2)n1-c1ccccc1 (stereo not given)	nt	96	82	-39
CCOc1ccc(NC(=O)c2oc3ccccc3c2NC(=O)C(C)Oc2ccccc2)cc1 (stereo not given)	102	91	76	-24
Cc1cc(NC(=O)CCCO)n[nH]1	102	93	81	-27
Cc1cccc(C)c1NC(=O)c1cc(CN2CCCC2)on1	102	nt	nt	-32
COc1ccccc1-c1cc2c(SCC(=O)Nc3ccc(C)cc3)nccn2n1	107	nt	nt	9
CN1CCN(c2ccc(Nc3c4ccccc4nc4ccccc34)cc2)CC1	94	nt	nt	-24
CCC(=O)N1CCc2cc(S(=O)(=O)CCC(=O)N(C)c3ccc(Br)cc3)ccc21	99	102	85	nt
c1cc(-c2nnc3sc(-c4ccc5c(c4)OCCCO5)nn23)ccn1	101	nt	nt	-1
COc1ccc(CN(Cc2ccco2)C(=O)c2cc3ccccc3oc2=O)c(OC)c1	99	113	90	-18
CCCn1nc(C(=O)NC2CCC(C)CC2)ccc1=O (stereo not given)	nt	102	95	7
O=C1CCc2cc(S(=O)(=O)N3CCN(S(=O)(=O)c4ccc(F)cc4)CC3)cc3c2N1CC3	112	nt	nt	-13
O=C(Cn1c2ccccc2c2nc3ccccc3nc21)NCCO	103	nt	nt	-33
CCCc1cc(=O)[nH]c2nnc(SCC(=O)Nc3ccc(OC)cc3)n12	102	85	97	nt
COc1ccccc1CNC(=O)CCn1c(=O)c2ccccc2n(Cc2ccc(F)cc2)c1=O	102	96	96	nt
CN(C)c1ccc(NC(=O)Cn2c(-c3ccccc3F)nc3ccccc3c2=O)cc1	108	nt	nt	-4
CCC(C)NC(=O)c1ccccc1-c1nc2ccccc2[nH]1 (stereo not given)	96	74	89	-6
O=C(CSc1ccccc1)Nc1cccc(O)c1	105	115	92	-9
CN=C1c2c(C)c3cc(OC)ccc3n2CCN1C	102	86	88	nt
CCCSc1nnc2c(n1)OC(c1sccc1C)Nc1ccccc1-2 (stereo not given)	113	88	81	-3
C=CCN=c1scc(-c2ccco2)n1/N=C/c1cccs1	nt	67	72	-34
CCOC(=O)c1c(NC(=O)Cn2cnc([N+](=O)[O-])n2)sc2c1CCCC2	102	nt	nt	-10
COc1ccc2[nH]c(C(=O)N3CCCN(C(=O)c4cccs4)CC3)cc2c1	113	93	78	-8
Cc1nn(-c2ccccc2)c2sc(C(=O)N3CCN(C)CC3)cc12	nt	103	99	6
CCC(CC)C(=O)Nc1cccc(-c2nc3cccnc3s2)c1	101	103	86	3
CCC1=C(c2ccc(C)cc2)S(=O)(=O)N=C1N1CCC(C(=O)NCc2ccc(N(C)C)cc2)CC1	101	91	91	nt
Cc1ccc(NC(=O)N2CCc3c(sc4c3CCCC4)C2c2ccccc2)cc1F (stereo not given)	101	76	78	nt
The listing continues.
SMILES	GIV-Gai inh	Sa growth 42C	Sa growth 42C second temp	HCMV NEC inh
Cc1cc(C)c(S(=O)(=O)NCc2csc(-c3ccccc3)n2)c(C)c1	100	87	73	-26
COc1ccc(-n2ncc(C(=O)O)c2-c2ccncc2)cc1	99	nt	nt	-28
O=C(c1ccco1)N(C(=O)c1ccco1)c1c(Cl)cc(Cl)c2cccnc12	101	106	92	-10
O=C1c2c(O)cc(O)cc2OC(c2ccc(O)c(O)c2)C1O (stereo not given)	105&104	nt	nt	-6&20&-25&-88&-13
O=C(c1ccc(N2CC=C(c3ccccc3)CC2)nn1)N1CCc2ccccc21	101	nt	nt	-27
O=C(Nc1nn(Cc2c(F)cccc2Cl)cc1Br)C1CCCO1 (stereo not given)	102	97	96	-3
CCc1ccccc1NC(=O)CN(C)S(=O)(=O)c1ccc2nc(-c3ccccc3)[nH]c2c1	109	nt	nt	-14
CCc1nnc(NC(=O)c2ccc(S(=O)(=O)N(C)c3ccccc3)cc2)o1	105	15	15	nt
Cn1nc(SCC(=O)n2c3c(c4ccccc42)CCCC3)sc1=S	102	103	84	nt

No enrichment for hits; any-hit rate near 0.83%.
